Compound activity from PubChem.
ID4 binder = binders of human ID4 protein, primary screen, biochemical, small molecule microarray, single point; Flag-ID4 binding, fluorescence F/B; calls only; 1.2% of 31,000 active; AID 624137, 2012;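 active = spot signal over background at p below 0.07 in all four prints; compounds were printed on slides so no solution concentration is given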;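 also: a binder raises fluorescence above local background on the spot; about 2 pmol printed per array spot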
Target sequence (P47928 whole entry, looked up): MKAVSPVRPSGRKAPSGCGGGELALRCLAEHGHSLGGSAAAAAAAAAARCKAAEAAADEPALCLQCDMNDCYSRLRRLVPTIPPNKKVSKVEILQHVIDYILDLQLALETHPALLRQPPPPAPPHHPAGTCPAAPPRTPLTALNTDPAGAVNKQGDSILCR
Calls only; i = inactive; + = active, no number. These rows are one share of the data. The share of hits here may be higher or lower than overall.

C=CCN(C(=O)c1cc2cc3cc(OC)ccc3nc2s1)c1ccccc1
- ID4 binder: i
COc1ccccc1-c1cnc2c(c1)C(=O)N([C@@H](C)CO)C[C@H](C)[C@H](CN(C)CC1CCOCC1)O2
- ID4 binder: i
C[C@@H]1CN([C@H](C)CO)S(=O)(=O)c2ccc(C#Cc3ccccc3F)cc2O[C@H]1CN(C)C(=O)Cc1cccnc1
- ID4 binder: i
CCn1c(SCC(=O)Nc2ccccc2-c2ccccc2)nnc1-c1cccs1
- ID4 binder: i
COC(=O)c1cc(NC(=O)CSc2ccccn2)cc(C(=O)OC)c1
- ID4 binder: i
N#C[C@H]1[C@@H](c2ccc(-c3cccc(F)c3)cc2)[C@@H](CO)N1C(=O)c1cccnc1
- ID4 binder: i
CCCSc1nnc(-c2cc(Br)ccc2NC(C)=O)c(=O)[nH]1
- ID4 binder: i
C[C@@H]1CN([C@H](C)CO)C(=O)c2cc(-c3ccc(C(=O)N(C)C)cc3)cnc2O[C@@H]1CN(C)C
- ID4 binder: i
COC(=O)[C@H]1[C@H]2C[C@H]3c4[nH]c5ccccc5c4CCN3C[C@H]2CC[C@@H]1O
- ID4 binder: i
C[C@@H]1CN([C@H](C)CO)C(=O)c2cc(-c3ccccc3)cnc2O[C@@H]1CN(C)C
- ID4 binder: i
O=C(CC(C(=O)O)N1CCCCC1)Nc1cccc2ccccc12 (stereo not drawn)
- ID4 binder: i
C[C@@H]1CN([C@H](C)CO)C(=O)c2cc(-c3cccc(F)c3)cnc2O[C@@H]1CN(C)C(=O)C1CCCCC1
- ID4 binder: i
C[C@H](CO)N1C[C@H](C)[C@@H](CN(C)C(=O)Nc2ccccc2F)Oc2cc(-c3ccc(C(=O)N(C)C)cc3)ccc2S1(=O)=O
- ID4 binder: +
CN(C)c1ccc2c(c1)[C@H]1C[C@@H](CC(=O)NCc3ccncc3)O[C@@H](CO)[C@H]1O2
- ID4 binder: i
c1cncc(-c2nn3c(Cn4cnc5ccccc54)nnc3s2)c1
- ID4 binder: i
COc1ccccc1OCCSc1n[nH]c2nc3ccccc3n12
- ID4 binder: i
O=C(CSc1nnc(-c2ccccc2)n1-c1ccccc1)N1c2ccccc2Sc2ccccc21
- ID4 binder: i
O=[N+]([O-])c1cccc(CN2CCN(Cc3ccco3)CC2)c1
- ID4 binder: i
CC(NS(=O)(=O)c1ccccc1)C(=O)Nc1ccc(F)c(Cl)c1 (stereo not drawn)
- ID4 binder: i
N#Cc1ccccc1NC(=O)c1ccccc1OCC(=O)Nc1ccc2c(c1)oc1ccccc12
- ID4 binder: i
COCCNS(=O)(=O)c1cc(OC)c(Cl)cc1OC
- ID4 binder: i
O=C(C[C@@H]1CC[C@@H](NC(=O)CCN2CCCCC2)[C@H](CO)O1)Nc1nccs1
- ID4 binder: i
C[C@H]1CN([C@@H](C)CO)C(=O)c2ccccc2-c2ccccc2CO[C@@H]1CN(C)C(=O)Nc1ccnc(N2CCOCC2)c1
- ID4 binder: i
O=C1/C(=C/c2cn[nH]c2-c2ccc(F)cc2)CS/C1=C\c1cn[nH]c1-c1ccc(F)cc1
- ID4 binder: i
CCCNC(=O)N1[C@H](C#N)[C@@H](c2ccc(-c3ccccc3F)cc2)[C@H]1CO
- ID4 binder: i

CCCN(C)C[C@@H]1Oc2cc(C#CCC(C)C)ccc2S(=O)(=O)N([C@@H](C)CO)C[C@@H]1C
- ID4 binder: i
O=C(NCc1ccccn1)C1CCCN(S(=O)(=O)c2ccc(F)cc2)C1 (stereo not drawn)
- ID4 binder: i
Cc1ccc(NC(=O)Cn2cnc3ccccc3c2=O)cc1C
- ID4 binder: i
C[C@@H]1CN([C@H](C)CO)C(=O)c2cc(C3=CCCC3)cnc2O[C@H]1CN(C)Cc1ccc(F)cc1
- ID4 binder: i
COc1ccc(S(=O)(=O)N(C)CC(=O)Nc2cc(Cl)c(Cl)cc2Cl)cc1Cl
- ID4 binder: i
C[C@H]1CN([C@@H](C)CO)S(=O)(=O)c2ccc(-c3ccccc3)cc2O[C@@H]1CN(C)Cc1ccccc1
- ID4 binder: i
COC(=O)c1ccc(S(=O)(=O)NCc2ccco2)o1
- ID4 binder: i
C[C@H](CO)N1C[C@H](C)[C@@H](CN(C)C(=O)Cc2ccccc2)Oc2cc(-c3ccccc3)ccc2S1(=O)=O
- ID4 binder: i
O=C(NCC1CCNCC1)/C(=N/O)c1ccccc1
- ID4 binder: i
CS(=O)(=O)N(CC(=O)Nc1cc(Cl)ccc1Cl)c1cccc([N+](=O)[O-])c1
- ID4 binder: i
CCCNC(=O)C[C@@H]1C[C@@H]2c3cc(NC(=O)Nc4ccc(OC)cc4)ccc3O[C@@H]2[C@@H](CO)O1
- ID4 binder: i
CS(=O)(=O)N(CC(=O)Nc1ccc2c(c1)OCCO2)Cc1ccccc1
- ID4 binder: i
C[C@@H]1CN([C@@H](C)CO)S(=O)(=O)c2ccc(C#CCN(C)C)cc2O[C@H]1CN(C)C(=O)c1ccccc1F
- ID4 binder: i
C[C@@H]1CN([C@@H](C)CO)C(=O)c2cc(Br)cnc2O[C@H]1CN(C)CC1CCCC1
- ID4 binder: i
COc1ccc(OC)c(NC(=O)CNC(=O)c2ccc(C(C)(C)C)cc2)c1
- ID4 binder: i
COc1ccc(N(C(C)C(=O)Nc2ccc(I)cc2)S(C)(=O)=O)cc1 (stereo not drawn)
- ID4 binder: i
CC(Sc1nnc(N)s1)C(=O)Nc1ccc(Cl)cc1 (stereo not drawn)
- ID4 binder: i
COC(=O)c1ccc(NC(=O)CSc2nnc(C)n2-c2ccccc2)cc1
- ID4 binder: i
COc1ccc(C(=O)N(Cc2nc(-c3ccc(Cl)cc3)no2)C(C)C)cc1OC
- ID4 binder: i
C[C@H](NC(=O)C[C@@H]1CC[C@H](NC(=O)C2CCC2)[C@@H](CO)O1)c1ccccc1
- ID4 binder: i
C[C@H](CO)N1C[C@H](C)[C@H](CN(C)C(=O)C2CCCCC2)Oc2ncc(C#CC3CCCC3)cc2C1=O
- ID4 binder: i
C[C@H](CO)N1C[C@H](C)[C@@H](CN(C)C)Oc2ncc(C#CCN(C)C)cc2C1=O
- ID4 binder: i
COc1ccc(-c2cnc3c(c2)C(=O)N([C@@H](C)CO)C[C@H](C)[C@H](CN(C)Cc2cccnc2)O3)cc1
- ID4 binder: i
COc1ccc([N+](=O)[O-])cc1NC(=O)CN(c1ccccc1F)S(C)(=O)=O
- ID4 binder: i
C[C@@H]1CN([C@@H](C)CO)S(=O)(=O)c2ccc(C3=CCCCC3)cc2O[C@H]1CN(C)Cc1ccccn1
- ID4 binder: i

Cc1ccc(N(C(C)C(=O)Nc2cc(Cl)cc(Cl)c2)S(C)(=O)=O)cc1 (stereo not drawn)
- ID4 binder: i
COc1ccc(Cl)cc1NC(=O)CSc1nnc(-c2cc3cc(Br)ccc3o2)n1C
- ID4 binder: i
C[C@@H]1CN([C@@H](C)CO)C(=O)c2cc(C#CC3CC3)cnc2O[C@@H]1CN(C)C
- ID4 binder: i
OCC1(CO)COC(COc2ccccc2)=N1
- ID4 binder: +
O=C(CC1NC2CCCCC2NC1=O)Nc1cccc(C(F)(F)F)c1 (stereo not drawn)
- ID4 binder: i
Cc1cc(OC(=O)c2c(C)cc(O)cc2O)cc(O)c1C(=O)O
- ID4 binder: i
C=CCc1cccc2cc(C(=O)NCCN3CCOCC3)c(=O)oc12
- ID4 binder: i
C[C@H]1CN([C@@H](C)CO)C(=O)c2cc(-c3ccncc3)cnc2O[C@@H]1CN(C)C
- ID4 binder: +
COc1cccc(NC(=O)CSc2nc3ccccc3n2C)c1
- ID4 binder: i
CC(C)NS(=O)(=O)c1ccc(OCC(=O)O)cc1
- ID4 binder: i
CC(=O)c1cccc(NC(=S)NCc2cccnc2)c1
- ID4 binder: i
C[C@H](CO)N1C[C@H](C)[C@@H](CN(C)Cc2cccnc2)OCc2ccccc2-c2ccccc2C1=O
- ID4 binder: i
CC(C)(C)NS(=O)(=O)c1ccc(NC(=O)CSc2nc3ccccc3[nH]2)cc1
- ID4 binder: i
CCOc1ccccc1Nc1nc(N)nc(CN(C)C2CCCCC2)n1
- ID4 binder: i
C[C@H]1CN([C@@H](C)CO)C(=O)c2cc(C3=CCCC3)cnc2O[C@@H]1CN(C)C(=O)C1CC1
- ID4 binder: i
Cn1nnnc1SCC(=O)Nc1cccc(C(=O)O)c1
- ID4 binder: i
O=C(CSCCO)Nc1cccc2ccccc12
- ID4 binder: i
COc1ccc2c(C)c(CCC(=O)O)c(=O)oc2c1C
- ID4 binder: i
Cn1c(SCC(=O)Nc2cccc3ccccc23)nnc1-c1cccs1
- ID4 binder: i
O=C(c1ccc(Cl)cc1)N1CCN(c2ccc([N+](=O)[O-])c(NCc3ccccn3)c2)CC1
- ID4 binder: i
CC(Sc1nc(N)c2c3c(sc2n1)COC(C)(C)C3)C(=O)Nc1ccccc1 (stereo not drawn)
- ID4 binder: i
Cc1c(Br)c([N+](=O)[O-])nn1CC(=O)NCc1ccccn1
- ID4 binder: i
COc1ccc(C(=O)NCCc2nc3ccccc3[nH]2)cc1OC
- ID4 binder: i
CC(C)C#Cc1ccc2c(c1)O[C@H](CN(C)C)[C@H](C)CN([C@@H](C)CO)S2(=O)=O
- ID4 binder: i
Cc1ccc(C2SCC(C(=O)O)N2C(=O)c2cccc(Cl)c2)cc1 (stereo not drawn)
- ID4 binder: i

An excerpt from above in order of length of the SMILES, largest number first:
O=C(c1ccc(Cl)cc1)N1CCN(c2ccc([N+](=O)[O-])c(NCc3ccccn3)c2)CC1
- ID4 binder: i
Cc1c(Br)c([N+](=O)[O-])nn1CC(=O)NCc1ccccn1
- ID4 binder: i
Cn1c(SCC(=O)Nc2cccc3ccccc23)nnc1-c1cccs1
- ID4 binder: i

(cont.)
Cc1noc(C)c1NC(=O)N[C@@H]1C=C[C@@H](CC(=O)NCc2ccc(Cl)c(Cl)c2)O[C@@H]1CO
- ID4 binder: i
CC(C)C#Cc1cnc2c(c1)C(=O)N([C@@H](C)CO)C[C@@H](C)[C@H](CN(C)C(=O)c1cccc(F)c1)O2
- ID4 binder: i
O=[N+]([O-])c1ccc(S(=O)(=O)NCCc2nc3ccccc3[nH]2)cc1
- ID4 binder: i
COC(=O)CSc1nc(-c2ccc(F)cc2)[nH]c1-c1ccc(C)cc1
- ID4 binder: i
Cc1ccc(-c2ccc3c(c2)O[C@H](CN(C)C(=O)C2CCC2)[C@H](C)CN([C@H](C)CO)S3(=O)=O)cc1
- ID4 binder: i
C[C@H]1CN([C@@H](C)CO)C(=O)c2cc(-c3ccc(C#N)cc3)cnc2O[C@@H]1CN(C)CC1CCCC1
- ID4 binder: i
COC(=O)c1c(NC(=O)COc2ccccc2)sc(C(N)=O)c1C
- ID4 binder: i
C[C@H](CO)N1C[C@H](C)[C@H](CN(C)CC2CC2)OCc2ccccc2-c2c(n(C)c3ccccc23)C1=O
- ID4 binder: i
CSc1cc(-c2nccs2)[nH]n1
- ID4 binder: i
CCCNC(=O)N1[C@H](C#N)[C@@H](c2ccc(/C=C/c3ccccc3)cc2)[C@H]1CO
- ID4 binder: i
COc1ccccc1NC(=O)CC1C(=O)NCCN1C(=O)Nc1ccc(Cl)c(Cl)c1 (stereo not drawn)
- ID4 binder: i
Cc1ccccc1NC(=O)CSC1CC(=O)N(c2ccc(F)cc2)C1=O (stereo not drawn)
- ID4 binder: i
COc1ccc(NC(=O)CSc2nnc(-c3ccncc3)n2-c2ccc(Cl)cc2)cc1
- ID4 binder: i
C[C@H](CO)N1C[C@H](C)[C@@H](CN(C)Cc2cccnc2)Oc2ncc(/C=C/c3ccccc3)cc2C1=O
- ID4 binder: i
CCn1c(SCC(=O)Nc2cccc(C(=O)O)c2)nnc1-c1ccc(Cl)cc1Cl
- ID4 binder: i
C[C@H]1CN([C@@H](C)CO)C(=O)c2cc(Br)cnc2O[C@H]1CN(C)C(=O)C1CCCCC1
- ID4 binder: i
CCn1c(SCC(=O)Nc2ccc(I)cc2C)nnc1-c1ccccc1
- ID4 binder: i
Cc1cc(Oc2coc3cc(OCC(=O)Nc4ccccc4F)ccc3c2=O)cc(C)c1Cl
- ID4 binder: i
C[C@@H]1CN([C@@H](C)CO)C(=O)c2cc(C#C[C@@H](C)O)cnc2O[C@H]1CN(C)CC1CCCCC1
- ID4 binder: i
O=C(COc1ccccc1)Nc1nn[nH]n1
- ID4 binder: i
CC(C)CC#Cc1cnc2c(c1)C(=O)N([C@H](C)CO)C[C@H](C)[C@H](CN(C)Cc1ccccn1)O2
- ID4 binder: i
Cc1c(NC(=O)c2ncn[nH]2)cccc1-c1nc2cc(Cl)ccc2o1
- ID4 binder: i
C/C=C/c1cnc2c(c1)C(=O)N([C@@H](C)CO)C[C@H](C)[C@H](CN(C)CC1CCOCC1)O2
- ID4 binder: i
COc1cccc(NC(=O)CSc2nnc(C)n2-c2ccc(F)cc2)c1
- ID4 binder: i
COCC(=O)N[C@H]1CC[C@@H](CC(=O)N2CCCCC2)O[C@H]1CO
- ID4 binder: i

O=c1oc2cc(O)ccc2s1
- ID4 binder: i
CCn1c(SCC(=O)Nc2ccccc2C)nnc1-c1ccco1
- ID4 binder: i
COC(=O)CNC(=O)c1cn(-c2ccccc2)nc1-c1cc2ccccc2oc1=O
- ID4 binder: i
CCCN(C)C[C@H]1Oc2ncc(C#CCN(C)C)cc2C(=O)N([C@@H](C)CO)C[C@@H]1C
- ID4 binder: i
COC(=O)c1ccc(NC(=O)CNS(=O)(=O)c2c(C)cc(C)cc2C)cc1
- ID4 binder: i
O=C(COc1ccc(C(=O)Nc2ccc(F)cc2)cc1)Nc1cc(Cl)cc(Cl)c1
- ID4 binder: i
COc1ccc(S(=O)(=O)N(C)CC(=O)Nc2ccccc2C(F)(F)F)cc1Cl
- ID4 binder: i
O=C(Nc1ccc2c(c1)[C@@H]1C[C@H](CC(=O)N3CCOCC3)O[C@H](CO)[C@@H]1O2)NC1CCCC1
- ID4 binder: i
COc1ccc(NC(=O)Cn2cc(C(=O)c3cccs3)c3ccccc32)cc1
- ID4 binder: i
C[C@@H]1CN([C@H](C)CO)C(=O)c2cc(/C=C/c3ccccc3)cnc2O[C@H]1CN(C)C(=O)C1CCC1
- ID4 binder: i
CC(C)C#Cc1cnc2c(c1)C(=O)N([C@@H](C)CO)C[C@@H](C)[C@H](CN(C)C(=O)Nc1cccc(F)c1)O2
- ID4 binder: i
O=C(CSc1nnc(-c2ccncc2)n1-c1ccc(F)cc1)Nc1ccc(Cl)cc1
- ID4 binder: i
COc1ccccc1NC(=O)CCc1nc(-c2ccccc2F)no1
- ID4 binder: i
O=[N+]([O-])c1ccc(N2CCN(S(=O)(=O)c3ccc(F)cc3)CC2)cc1NCc1cccnc1
- ID4 binder: i
